Biofilm kill mix – mixture kills Candida albicans biofilm cells; AID 1242; 0.02% of 120,000 active; inhibition, % at 7.6 µM; C. albicans biofilm persisters + clotrimazole, fluorescence viability; primary screen in compound mixtures of four per well;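 active = inhibition above 30.3% in the primary screen of four-compound pools, then above 30% when the compound was retested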;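 also: compounds exposed to preformed 24 h biofilms for 48 h; the number belongs to the whole pool; some results filed as inactive read as strong as hits; inactives centre near 12; 0% = biofilm with clotrimazole alone and 100% = kill control; retested singly at about 60 µM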
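System: C. albicans CAF4-2 wild-type biofilms; Medium: RPMI/MOPS medium, pH 7.0; Reagent: Clotrimazole, 50 µg/mL; Times: biofilm formation 24 h, compound exposure 48 h, 37 °C; Detection: 2-h Alamar Blue fluorescence, 535/590 nm excitation/emission; Evaluation: percent inhibition of biofilm viability.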
The depositor's hits bear a star.

cpd	structure	Biofilm kill mix
1	CCc1ccc(C(=O)COC(=O)[C@@H](NC(N)=O)[C@@H](C)CC)cc1	0
2	O=S(=O)(Nc1cccc(-c2cn3cccnc3n2)c1)c1ccccc1	15
3	CC12CCC(=O)N1C(C(=O)OCC(=O)Nc1ccc(S(N)(=O)=O)cc1)CS2 (stereo unspecified)	12
4	CCc1cc2c(nc1CC)CCN(CC/C(C)=N/O[C@@H](C)c1cc(-c3c(C)cc(C)cc3C)no1)C2	5
5	Nc1ccccc1Oc1c(F)c(F)c(Oc2ccccc2N)c(F)c1F	13
6	CCc1ccc(OCCNC(=O)OCc2ccccc2)cc1	6
7	COc1ccc(C(=O)CSc2nnc(CNc3ccc(F)cc3)o2)cc1	9
8	O=C(O)COc1ccccc1/C=C1\SC(=S)N(c2cccnc2)C1=O	16
9	OCCC1CN(Cc2cccs2)CCN1Cc1ccccc1 (stereo unspecified)	2
10	COc1ccc(OCCC(=O)OCC(=O)NC2CCCCCCC2)cc1	0
11	CCCCCCCCc1nnc(N)s1	18
12	N#Cc1c2n(c(=S)n(-c3ccc(F)cc3)c1=O)CCCCC2	-3
13	CCCCNC(=O)CNC(=S)N(Cc1ccccc1)Cc1cccs1	17
14	CCC(C)(C)n1nnnc1CN1CCN(c2ccc(OC)cc2)CC1	9
15	CN(C(=O)c1cccs1)c1ccc(OCC(=O)Nc2ccc(C(=O)O)cc2)cc1	31
16	Cc1cc(C(=O)N/N=C/c2ccc(O)c([N+](=O)[O-])c2)c(C)n1-c1ccc(F)cc1	-14
17	O=C(O)CSc1nc2ccccc2n1C1CCCCC1	8
18	CCOC(=O)c1ccc(N2CCCCC2)c(NS(=O)(=O)c2cccc(C(F)(F)F)c2)c1	11
19	O=C(c1cccc(Cl)c1)N1CCN(c2ncnc3c2cnn3-c2ccccc2)CC1	30
20	CC(Oc1ccc2ccc(=O)oc2c1)C(=O)c1ccccc1 (stereo unspecified)	3
21	Cc1ccc([N+](=O)[O-])c(OCCCN2C(=O)NC(C)(C)C2=O)c1	15
22	Cc1cc(C)nc(Sc2ccc(C=O)cc2[N+](=O)[O-])n1	-5
23	Cc1onc(-c2ccccc2Cl)c1C(=O)c1ccccc1	17
24	O=C(N/N=C/c1ccc(Br)s1)c1ccncc1	16
25	CS(=O)(=O)C1=NSC2=NC(=O)/C(=C\c3ccc(-c4ccccc4)o3)C(=N)N21	12
26	COc1ccc(C2=CC(=O)CC(c3ccccc3)C2)cc1 (stereo unspecified)	-5
27	Cc1csc(NC(=O)c2ccc(OCC3CCCO3)cc2)n1 (stereo unspecified)	26
28	COC(=O)c1cc(NC(=O)c2cccc(Cl)c2)c(=O)oc1/C=C/Nc1cc(C)cc(C)c1	9
29	CCOc1cc(CNC)ccc1OCC(=O)NC(C)(C)C	9
30	CC[N+](CC)(CC#Cc1ccccc1)CC#Cc1ccccc1	22

cpd	structure	Biofilm kill mix
31	O=C(CSCc1ccc([N+](=O)[O-])cc1)N/N=C/c1ccncc1	9
32	C=C(CC1([C@@H](NP(=O)(c2ccccc2)c2ccccc2)[C@H]2C[C@@H]2CCCC)CC1)c1ccccc1	6
33	C=CCNC(=S)Nc1ccc(Cl)c(S(=O)(=O)N2CCOCC2)c1	3
34	CCC(=Nc1ccccc1)C1=C(O)CCCC1=O	11
35	COc1ccc2c(c1)C(=O)C(=O)N2	17
36	COc1ccc(C2NC(=O)Cc3cc(OC)c(OC)cc32)cc1OC (stereo unspecified)	2
37	CN(c1ccccc1)S(=O)(=O)c1cccc(NC(=O)CC(C)(C)C)c1	10
38	CC(OC(=O)Cc1coc2ccc3ccccc3c12)C(=O)NC(N)=O (stereo unspecified)	17
39	Cc1cc(C)n2nc(CCCCc3nc4nc(C)cc(C)n4n3)nc2n1	13
40	Nc1c(C(=O)c2ccc(Cl)cc2)sc2nc3c(cc12)CCC3	18
41	O=C(O)CCCCCNS(=O)(=O)c1ccc2c(c1)OCCO2	-2
42	Cc1nonc1CN(C)C(=O)CC1C(=O)NCCN1Cc1ccc(F)c(F)c1 (stereo unspecified)	18
43	Nc1ccccc1C(=O)NC1CCCCNC1=O (stereo unspecified)	16
44	CC(NC(=O)CN(C)S(=O)(=O)c1cnc[nH]1)c1ccccc1 (stereo unspecified)	21
45	CN(C)CCCN(C(=O)/C=C/c1cccs1)c1nc2c(F)cccc2s1	13
46	O=C(CCc1nnc(-c2ccccc2)o1)NC1CCCCC1	3
47	CC(=O)N1CCC2(CC1)C/C(=N\NC(=S)Nc1ccccc1F)c1cc(O)ccc1O2	14
48	N/C(=N\O)c1ccc([N+](=O)[O-])s1	22
49	COc1ccc(Br)cc1CNC(=O)CCNC(=O)Cn1ccc2ccccc2c1=O	3
50	CN(c1ccccc1)S(=O)(=O)c1ccc(Cl)c(C(=O)Nc2nc3ccccc3[nH]2)c1	8
51	COc1cccc(CN2CCN(Cc3ccc(OC)c(OC)c3)CC2CCO)c1 (stereo unspecified)	-3
52	Cc1ccc[n+](CC(=O)Nc2cc(C(F)(F)F)ccc2N2CCOCC2)c1	-4
53	CC(C)NC(=O)/C(C#N)=C\c1ccc(N(C)C)c(Br)c1	12
54	CN(C(=O)COC(=O)C(Cc1ccccc1)NC(=O)c1ccccc1)c1ccccc1 (stereo unspecified)	7
55	CCOC(=O)c1sc(NC(=O)CCN2CCC(C)CC2)c(C(=O)OCC)c1C	-6
56	Cc1cc(=O)[nH]c(SCC(=O)Nc2ccc(Br)cc2)n1	12
57	CC(C)CNC(=S)Nc1ccc(S(N)(=O)=O)cc1	14
58	Cn1c(CSCC(=O)Nc2ccccc2)nnc1SCc1ccccc1	17
59	Cc1cc(=O)oc2c(CN3CC(C)OC(C)C3)c(O)c(Cl)cc12 (stereo unspecified)	13
60	CCN(CC)CCNC(C(=O)Nc1cccc(C(C)=O)c1)c1ccccc1 (stereo unspecified)	-8

cpd	structure	Biofilm kill mix
61	CCN(CC)c1ccc(NC(=O)COc2ccccc2C#N)cc1S(=O)(=O)Nc1ccc(OC)cc1	-10
62	O=C(CSc1ncn[nH]1)Nc1c(Br)cc([N+](=O)[O-])cc1Br	12
63	COc1ccc(N(C)S(=O)(=O)c2cccc(C(=O)N(C)Cc3ccc(C)o3)c2)cc1	12
64	CCC1CCc2c([nH]c3ccccc3c2=O)O1 (stereo unspecified)	8
65	O=S(=O)(Cc1cccc(C(F)(F)F)c1)c1ncn[nH]1	11
66	Cc1ccc(/C=N/n2c(-c3ccc(Cl)cc3)n[nH]c2=S)s1	14
67	COC(=O)C(Cc1ccccc1)NC(=O)c1ccc(C)cc1 (stereo unspecified)	13
68	Cc1sc2nc3n(c(=O)c2c1C)CCCCC3	-4
69	Cc1cc(C)cc(N2CN=C3SCC(=O)N3C2)c1	-1
70	C=CCSc1nc2ccccc2n1S(=O)(=O)c1ccc(C)cc1	17
71	c1ccc2c(c1)Oc1cccc3cccc-2c13	22
72	O=C1C2C3C=CC(CC3)C2C(=O)N1c1nccs1 (stereo unspecified)	11
73	COc1cccc(CN(C(=O)Cc2c[nH]c3ccccc23)C(C(=O)NC2CCCCC2)c2ccc(C)o2)c1 (stereo unspecified)	9
74	O=C(O)/C=C/c1cccc(NC(=O)c2ccc(Cl)cc2)c1	16
75	CN1CCC(NC(=O)NC2CCCCC2)CC1	21
76	CC(C)c1csc(CN2CCN(Cc3ccc(F)cc3)C(CCO)C2)n1 (stereo unspecified)	1
77	Cc1nc(-c2ccc(Cl)cc2)sc1C(=O)O	10
78	CCCCCCNC(=O)CCCCCNS(=O)(=O)c1ccc(Br)cc1	18
79	COc1cc(C(=O)O/N=C(\N)Cc2ccc([N+](=O)[O-])cc2)cc(OC)c1OC	21
80	Cc1cccc(C(=O)N/N=C2\CS(=O)(=O)N(C)c3ccsc32)c1	22
81	Cc1ccccc1OCc1nnc(SCCN2CCCC2)n1-c1ccccc1	3
82	Cc1ccc(/C=N/NC(=O)CCn2nc(C)cc2C)c(C)c1	1
83	O=C(CSc1nc(-c2ccccc2Cl)ns1)c1ccc(Cl)cc1	9
84	Clc1ccc(C2=NNC(=NCC3CCCO3)SC2)cc1 (stereo unspecified)	6
85	O=C(CSc1nc(O)c(Cc2ccccc2)c(=O)[nH]1)c1ccccc1	23
86	Cc1ccc(SCCNC(=O)/C=C/c2ccc([N+](=O)[O-])cc2)cc1	19
87	CCOC(=O)c1sc(NC(=O)c2ccccc2OCC)nc1C	17
88	COCCN(CCOC)S(=O)(=O)c1ccc(C(=O)Nc2ccc([N+](=O)[O-])cc2OC)cc1	12
89	CCn1c(SCC(=O)N(C)C2CCS(=O)(=O)C2)nnc1-c1cccs1 (stereo unspecified)	13
90	Cc1cc(Cl)nc2c(C(C)C)cccc12	15

6 structures out of the list, arranged by number of heavy atoms, descending.
cpd	structure	Biofilm kill mix
76	CC(C)c1csc(CN2CCN(Cc3ccc(F)cc3)C(CCO)C2)n1 (stereo unspecified)	1
87	CCOC(=O)c1sc(NC(=O)c2ccccc2OCC)nc1C	17
82	Cc1ccc(/C=N/NC(=O)CCn2nc(C)cc2C)c(C)c1	1
84	Clc1ccc(C2=NNC(=NCC3CCCO3)SC2)cc1 (stereo unspecified)	6
65	O=S(=O)(Cc1cccc(C(F)(F)F)c1)c1ncn[nH]1	11
77	Cc1nc(-c2ccc(Cl)cc2)sc1C(=O)O	10

Next records follow:
cpd	structure	Biofilm kill mix
91	CCOc1ccc(NC(=O)Nc2ccc3nsnc3c2)cc1	23
92	CCC(C)(C(=O)NC1CCCCC1)N(Cc1cccs1)C(=O)CC1NC(=O)NC1=O (stereo unspecified)	19
93	C/[N+]([O-])=C\CC(=O)c1ccc(-c2ccccc2)cc1	-6
94	CC1CC(=S)Nc2ccccc2N1C(=O)Nc1ccccc1 (stereo unspecified)	10
95	C/C(=N\NC(=O)c1ccccc1)c1ccc(NC(=O)c2cccs2)cc1	21
96	COCCNC(=O)C(=O)NNS(=O)(=O)c1ccc(Cl)cc1	7
97	O=C(Nc1nc2ccc3ccccc3c2s1)c1ccc(N2CCCCC2)c([N+](=O)[O-])c1	13
98	CN(C)C(=O)COc1ccc(Br)cc1	9
99	COC(=O)c1ccccc1NC(=O)CSc1ncccn1	9
100	Cc1ccc(C(=O)O)cc1NC(=O)c1ccc(Cn2nc(C)c(Cl)c2C)o1	12
101	COc1ccccc1/C=C/C=c1\sc2nc(=O)c(Cc3ccccc3)nn2c1=O	4
102	CCOC(=O)N1CCC(NC(=O)c2cnc3n(c2=O)CCS3)CC1	4
103	CC(C)(CC(=O)O)CC(=O)Nc1ccc(Oc2ccc(C(C)(C)C)cc2)nc1	23
104	Cc1c(CN2CCC(CO)(CCOc3ccccc3)CC2)c(=O)n(-c2ccccc2)n1C	13
105	Cc1nc(-c2ccccc2)sc1-c1nnc(C2CC2)o1	18
106	C/C(=N\Nc1nc(N)cc(Cl)n1)c1ccc(F)cc1	0
107	O=Cc1ccc(OCC(=O)Nc2ccccc2-c2ccccc2)cc1	10
108	O=C(N/N=C/c1ccco1)c1cc(Br)ccc1OCc1ccccc1	13
109	CC(C)(C)C(=O)NC(=S)Nc1ccccn1	19
110	Cc1cccc(NC(=S)N2CCCC(c3nc4ccccc4[nH]3)C2)c1 (stereo unspecified)	8
111	CCC(CC)C(=O)NCc1ccc(Cl)cc1	5
112	O=C(CSc1nc2nn(-c3ccccc3)c(=O)c-2c2n1CCCCC2)NCCCc1ccccc1	10
113	NC(=NC(=O)c1ccccc1)N1N=CCC1c1ccccc1 (stereo unspecified)	12
114	CCCNC(=O)c1ccc(CN2CCOCC2)cc1	0
115	CC1=NOC(=O)/C1=C\c1ccc2c(c1)OCO2	-4
116	NNC(=O)c1ccc(-c2cccc([N+](=O)[O-])c2)o1	17
117	Cn1cnnc1SCCOc1ccc(Cl)cc1	17
118	COc1ccc(Cn2c(C)nnc2-c2cnn(C)c2N)cc1OC	6
119	Cc1ccc2c(c1)NC(=O)CC(c1ccccc1)=N2	10
120	Cn1c(=O)c2[nH]c(=O)cnc2n(C)c1=S	18

Reformatted as labelled records: entries from further up.
107) O=Cc1ccc(OCC(=O)Nc2ccccc2-c2ccccc2)cc1
  Biofilm kill mix: 10
108) O=C(N/N=C/c1ccco1)c1cc(Br)ccc1OCc1ccccc1
  Biofilm kill mix: 13
109) CC(C)(C)C(=O)NC(=S)Nc1ccccn1
  Biofilm kill mix: 19
110) Cc1cccc(NC(=S)N2CCCC(c3nc4ccccc4[nH]3)C2)c1 (stereo unspecified)
  Biofilm kill mix: 8

Additional compounds:
cpd	structure	Biofilm kill mix
121	COc1cc(S(=O)(=O)Nc2cccc(C)c2)ccc1N=Cc1c(C)[nH]n(-c2ccccc2)c1=O	20
122	CCOc1cc(C(=O)N/N=C\c2cn(CC)nc2C)cc(OCC)c1OCC	21
123	COc1ccc(-c2csc(NC(=O)c3cc(-c4cccs4)nc4ccccc34)n2)c(OC)c1	-6
124	O=C(CN1C(=O)c2ccccc2S1(=O)=O)c1ccc(O)c(O)c1	10
125	Brc1cnc2nc(SC/C=C/c3ccccc3)[nH]c2c1	29
126	Cc1cccn2cc(CCNC(=O)Cc3cccs3)nc12	27
127	Cc1ccc(CNc2cnn(C34CC5CC(CC(C5)C3)C4)c(=O)c2Cl)cc1	21
128	C#CCOCCOCCOCCNc1nc(N2CCN(C(=O)[C@H](CCCCN)n3cc([C@@H](N)CO)nn3)CC2)nc(N2CCN(C(=O)[C@H](Cc3cc4ccccc4[nH]3)n3cc([C@@H](N)Cc4ccc(O)cc4)nn3)CC2)n1	17
129	CC(=O)OCCCNc1cc(SCc2ccco2)c2nonc2c1[N+](=O)[O-]	15
130	COc1cc(/C=N/NC(=O)c2cccc([N+](=O)[O-])c2)cc(OC)c1O	16
131	Cc1cc(=O)c2cc3nc(-c4cccnc4)oc3c(Br)c2o1	9

Only part of the results is shown (hit frequency here may not be typical).
